# MT1-MMP act inh – blockers of MT1-MMP proenzyme processing, primary screen, HT1080 RFP-PRO-GFP cells, GFP/RFP fluorescence; GFP/RFP ratio change, % at 20 µM; GFP/RFP ratio fluorescence, overnight; percent of plate control window, DMSO zero; 360,000 tested, 0.061% active; Matrix metalloproteinase-14 (Homo sapiens), P50281;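 active means GFP/RFP ratio change of at least 30% with cell ATP level not reduced by more than half and red fluorescence within 50% of control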; further: strong numbers were not always called active
#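 Compound: 20 µM single dose, 1% DMSO / System: HT1080 RFP-PRO-GFP cells / Controls: DMSO and RFP-L50D-GFP cell wells / Read-out basis: GFP/RFP fluorescence ratio / Schedule: overnight compound exposure at 37 °C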
# PABP polyA inh – PABP poly(A) RNA binding inhibitors, primary screen, biochemical, fluorescence polarization, uHTS. Polyadenylate-binding protein 1 (Homo sapiens), P11940. inhibition, % at 35 µM. 290,000 tested, 1% active. AID 2014, 2009;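 active means 50% or more with normal probe brightness, or confirmed in later tests; inconclusive means above 50% with abnormal brightness, or retests that disagree; inactive means below 50% or failed in later tests; about a fifth of its hits are not listed in these tables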;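 further: calls also rest on retests at 20 µM and on dose response follow-up; controls were probe without protein and protein plus probe with vehicle; some compounds called inactive have numbers as strong as hits; many hits fall short of the cut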
# Target sequence (P11940 whole entry, looked up): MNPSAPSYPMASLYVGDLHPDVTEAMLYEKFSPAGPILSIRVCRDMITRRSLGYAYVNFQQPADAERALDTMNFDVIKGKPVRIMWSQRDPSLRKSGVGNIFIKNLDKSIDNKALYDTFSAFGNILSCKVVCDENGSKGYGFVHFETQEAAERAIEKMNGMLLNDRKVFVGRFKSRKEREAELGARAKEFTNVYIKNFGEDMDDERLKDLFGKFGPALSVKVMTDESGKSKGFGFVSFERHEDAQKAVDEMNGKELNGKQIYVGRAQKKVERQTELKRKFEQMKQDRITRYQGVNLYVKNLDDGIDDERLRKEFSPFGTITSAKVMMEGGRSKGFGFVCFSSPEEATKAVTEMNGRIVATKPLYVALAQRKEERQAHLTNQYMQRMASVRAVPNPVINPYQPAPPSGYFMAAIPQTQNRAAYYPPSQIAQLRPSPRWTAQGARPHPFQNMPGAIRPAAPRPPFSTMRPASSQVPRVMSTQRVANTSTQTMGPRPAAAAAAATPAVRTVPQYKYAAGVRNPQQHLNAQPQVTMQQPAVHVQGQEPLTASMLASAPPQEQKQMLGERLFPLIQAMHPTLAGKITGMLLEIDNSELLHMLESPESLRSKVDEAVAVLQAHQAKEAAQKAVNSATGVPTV
# Env fusion inh – inhibitors of HIV-1 Env-driven cell-cell fusion, primary screen, HeLa-JRFL effector, CEM21 target cells, luciferase | inhibition, % at 12.3 µM | 360,000 tested, 1.1% active | AID 651610, 2012;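 active means mean replicate inhibition score of at least 50 and every replicate individually at or above 50; inconclusive means only one of the two criteria met; inactive means mean below 50 and not all replicates reaching 50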;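 further: 0% = plate neutral controls and 100% = maraviroc near 300 nM; one replicate is shown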
# CSC inhib – cancer stem cell viability inhibitors, primary screen, luminescence; cancer stem cell-like cells viability; 300,000 tested, 1.1% active; inhibition, % at 7.5 µM;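 active means mean at 75% or more and at least half the replicates too; inconclusive means mean and replicates disagree; tested in HMLE shEcad cells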;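 further: 0% = median of negative and 100% = median of positive control wells; the first replicate is given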
# eIF4H FP inh – human eIF4H binding inhibitors, primary screen, translation initiation inhibitor project, biochemical, uHTS, fluorescence polarization; inhibition, % at 35 µM; Eukaryotic translation initiation factor 4H (Homo sapiens), Q15056; AID 2012, 2009; eIF4H fluorescence polarization binding assay; 290,000 tested, 0.94% active;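 active means 50% or more with normal probe brightness, or confirmed in later tests; inconclusive means above 50% with abnormal brightness, or retests that disagree; inactive means below 50% or failed in later tests; about a fifth of its hits are not listed in these tables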;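 further: calls also rest on retests at 20 µM and on dose response follow-up; 0% = protein and probe with vehicle and 100% = probe without protein; strong numbers were not always called active; many hits fall short of the cut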
# UUG fidelity – modulators of yeast start codon fidelity, primary screen, whole organism, S. cerevisiae, single point, plate reader; 350,000 tested, 0.13% active; activity score, % at 18.7 µM; AID 602363, 2012; S. cerevisiae UUG-firefly luciferase reporter, luminescence/redox ratio;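 active means replicate mean at a twofold rise or more, about +100% in these data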;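 further: firefly luciferase made from a UUG start codon reports start codon fidelity; reporter light over untreated wells divided by growth signal over untreated wells; some hits fall short of that in this replicate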
# Rce1 inhib – yeast Rce1p protease inhibitors, primary screen, biochemical, fluorescence, cell-free homogeneous | CAAX prenyl protease 2 (Saccharomyces cerevisiae (strain ATCC 204508 / S288c)), Q03530 | yeast membranes, quenched prenylated peptide cleavage fluorescence | calls only | 290,000 tested, 0.27% active;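 active means fall in fluorescence gain of 50% or more versus controls, with final raw signal at or below 3038400; inconclusive means same 50% fall but final raw signal above 3038400; inactive means fall in fluorescence gain under 50%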;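 further: plate controls were neutral control wells for no effect and wells lacking membranes for full effect; tested at 10 µM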
# eIF4H FP inh retest – further read-out of eIF4H FP inh, marked with its call; inhibition, %; compound at 20 µM; confirmation average;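 mean of two retest wells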
# PABP polyA inh retest – second read-out of PABP polyA inh, no call of its own (marks repeat the call); inhibition, %; compound at 20 µM; confirmation repeats;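 mean of two retest wells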
# MT1-MMP act inh RFP – further read-out of MT1-MMP act inh, marked with its call; RFP signal change, %; measured here: RFP expression control read;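 0 = vehicle wells; hits needed this value within 50% of zero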
# Active calls of the source: *; i = inactive; ? = inconclusive; . = no result given; & = joins results of further samples; [ ] = remark or other dose.
SMILES,MT1-MMP act inh,MT1-MMP act inh RFP,PABP polyA inh,Env fusion inh,CSC inhib,eIF4H FP inh,UUG fidelity,Rce1 inhib,others
CN(Cc1ccccn1)Cc1nc(COc2ccccc2)no1,1,1,-9,3,3,1,-24,i,
O=C(NCc1nc2ccccc2[nH]1)C1=C[C@H](c2coc3ccccc3c2=O)C[C@H](OCc2ccc(CO)cc2)O1,6,0,8,8[16.7 µM],-17,-2,8&-12,i,
O=C(CSc1nc(-c2ccccc2)nn1C(=O)c1ccccc1)Nc1cccc([N+](=O)[O-])c1,1,-6,-2,3,-2,-6,-13,i,
O=C(CC(Cc1ccccc1)C(=O)O)Nc1cccc(C(F)(F)F)c1 (centres undefined),-1,1,2,-7,-14,3,7,i,
Cc1cccc(OCC(=O)N(C)c2c(N)n(Cc3ccccc3)c(=O)[nH]c2=O)c1C,-2,2,.,0,-3,.,0,.,
O=C(NCCCN=C1NS(=O)(=O)c2ccccc21)c1ccc(Cl)cc1,5,2,11,9,.,-2,8,i,
COc1ccc(NC(=O)Cc2ccc(Cl)c(Cl)c2)cn1,0,-4,2,-4,2,1,.,i,
O=C(NCC1CCCO1)c1ccc(COc2ccc(Cl)cc2)cc1 (centres undefined),7,-2,-7,9,5,-5,.,.,
CN(C)C(CNC(=S)Nc1cccc(Cl)c1)c1cccnc1 (centres undefined),-1,3,15,7,-11,7,.,i,
CN(C)S(=O)(=O)n1cc(/C=C(\NC(=O)c2ccccc2)C(=O)N2CCCC2)c2ccccc21,0,3,2,-7,-20,-4,12,i,
CC1C(=O)C(C)C(c2cccc(Br)c2)NC1c1cccc(Br)c1 (centres undefined),1,-1,14,-24,15,-2,-18,i,
CC1CCCC(NC(=O)COC(=O)c2cccc(NS(=O)(=O)/C=C/c3ccccc3)c2)C1C (centres undefined),3,-1,7,19,-3,-9,-7,i,
CCn1cc(C(=O)NCCCN2CCCCCC2)c(=O)c2cc(S(=O)(=O)N3CCc4ccccc4C3)ccc21,-7,-5,7,18,.,-8,11,i,
CC1(C(=O)NS(=O)(=O)C2CC2)CCN(C(=O)c2ccc3c(c2)OCO3)C1 (centres undefined),-4,-3,.,-19,.,.,-16,.,
CCN1C(=O)CC(C(=O)OC)=C1C,-1,1,-1,0,19,3,.,i,
COc1ccccc1NNC(=O)C(O)(c1ccccc1OC)c1ccccc1OC,1,0,-1,-31,17,-2,.,i,
CCOC(=O)C(C(C)=O)C(c1ccc(OC)cc1)C(C(C)=O)C(=O)OCC (centres undefined),1,-1,-4,.,-16,-1,-10,i,
COc1ccc(S(=O)(=O)N2CCN(C(=O)CCNC(=O)c3ccccc3Cl)CC2)cc1,-2,1,.,.,-16,.,-8,.,
CC(NC(=O)C(Cc1ccccc1)n1cccc1)c1ccccc1 (centres undefined),-7,3,2,25,-5,4,.,i,
COC(CNC(=O)Cc1c(C)nc2c(-c3ccccc3)c(C)nn2c1C)OC,0,1,-4,25,-9,1,.,i,

# Next part; it opens with the 2 that closed the last part.
SMILES,MT1-MMP act inh,MT1-MMP act inh RFP,PABP polyA inh,Env fusion inh,CSC inhib,eIF4H FP inh,UUG fidelity,Rce1 inhib,others
CC(NC(=O)C(Cc1ccccc1)n1cccc1)c1ccccc1 (centres undefined),-7,3,2,25,-5,4,.,i,
COC(CNC(=O)Cc1c(C)nc2c(-c3ccccc3)c(C)nn2c1C)OC,0,1,-4,25,-9,1,.,i,
C=CCSc1nnc(NC(=O)c2cccc(S(=O)(=O)N3CCOCC3)c2)s1,9,-2,9,-3,-12,3,12,i,
O=C(Nc1cccc(F)c1)NC1(C(=O)N2CCC(O)CC2)CCCCC1,-2,-2,2,-13,-11,-20,-14,.,
CN1CCC(=O)N([C@H](CSc2ccc(Br)cc2)Cc2ccccc2)CC1,1,1,-5,-12,6,-4,-9,i,
CC(=O)c1c(C)[nH]c(C)c1C(C)=O,3,-2,0,0,12,1,-1,i,
N#CCc1nn(Cc2ccc(F)cc2)c(=O)c2ccccc12,-1,2,1,10,-6,-6,13,i,
COCCN(Cc1cc2cc3c(cc2nc1Cl)OCO3)C(=O)c1ccc(C)cc1,1,-18,3,32,-8,-2,-12,i,
CN(C)c1nc(N)c2ncc(=S)[nH]c2n1,-3,3,1,-30,3,29,.,i,
COC(=O)c1cc(-n2cccc2)ccc1N1CCOCC1,0,3,8,3,8,0,.,i,
CCOC(=O)Nc1ccc2c(c1)N(C(=O)CCN(CC)CC)c1ccccc1S2=O (centres undefined),-13,-12,-6,-9,36,-8,-6,i,
CCN(CC)C(=O)C1=C(C)N(Cc2ccc(F)cc2)C(=O)C(CC(=O)NCCCCc2ccccc2)C1 (centres undefined),3,0,.,-28,.,.,16,.,
COc1ccc(CN2CCC[C@]3(N[C@H](c4ccc(OC)cc4)[C@@H]4C(=O)N(C)C(=O)[C@@H]43)C2=O)cc1,-2,0,.,9,.,.,-18,.,
O=C(c1ccco1)N1CCN(CC(=O)N2c3ccccc3CCc3ccccc32)CC1,11,-3,22,6,-13,3,2,i,
N#C/C(=C/c1ccc(O)c([N+](=O)[O-])c1)C(=O)Nc1ccccc1,-12,-20,14,-187,63,-2,.,i,
C=CCNCCCOc1ccc(Cl)cc1Br,3,5,-5,-3,8,15,-25,i,
CC1(C(=O)NS(=O)(=O)Cc2ccccc2C(F)(F)F)CCN1C(=O)Cc1ccccc1 (centres undefined),-4,3,.,5,.,.,-12,.,
O=C(O)Cn1c(SCc2cccc3ccccc23)nc2ccccc21,0,3,12,-46,-4,-7,-12,i,
O=C1CN(C(=O)CN2CCN(S(=O)(=O)c3ccccc3F)CC2)c2ccccc2N1,-1,3,.,-10,.,.,-12,.,
COc1cccc(-n2cc3c(c2-c2ccccc2)c(=O)n(C)c(=O)n3C)c1,4,-4,12,.,-4,0,-2,i,
COc1ccc(N=C2SC(C(N)=O)CC(=O)N2Cc2ccc3c(c2)OCO3)cc1 (centres undefined),-3,-1,?,9,12,?,-14,i,
O=C(N=c1ccn(-c2nc3ccccc3nc2NS(=O)(=O)c2ccccc2)cc1)c1cccs1,-6,-8,-1,-7,-7,50,.,i,eIF4H FP inh retest=-12;PABP polyA inh retest=-1
Cc1ccc(C(=O)O/N=C2\CCSc3ccc(C)cc32)cc1,-1,1,6,0,-10,3,-3,i,
CCCCn1c(N)c(N(CCOC)C(=O)CN2C(=O)c3ccccc3C2=O)c(=O)[nH]c1=O,0,2,4,.,5,10,-8,i,
CCCc1cc(C(=O)Nc2ccc(OC)cc2[N+](=O)[O-])cs1,3,2,19,-54,.,-2,-7,i,
CC(C)CN(C(=O)COc1ccc([N+](=O)[O-])cc1)c1c(N)n(CC(C)C)c(=O)[nH]c1=O,1,2,.,.,-4,.,2,.,
CN1CCN(C(=O)CN2C(=O)COc3ccc(S(=O)(=O)N4CCOCC4)cc32)CC1,0,-1,1,-2,.,-8,-12,i,
CC(C)CC(=O)NCC(C)NC(=O)CC(C)C (centres undefined),0,0,7,10,-2,-4,-10,i,
Cc1nc(NCCc2ccccc2)c2nnn(Cc3ccccc3Cl)c2n1,6,2,15,-16,8,3,-11,i,
COCCNC(=O)COc1cccc2c1OC(C)(C)C2,-1,3,-21,4,-14,8,.,.,
CCOC(=O)NC(=O)c1cn(C(CC)CO)c(=O)[nH]c1=O (centres undefined),2,8,1,7,-3,-7,.,i,
COc1ccccc1NC(=S)Nc1ccccc1F,-1,0,-9,.,-1,3,-21,i,
COc1cccc(CNc2ccc([N+](=O)[O-])cc2C)c1,0,-6,-4,1,15,-6,3,i,
COc1ccc(C2NC(=O)NC(C)=C2C(=O)OC2CCCCC2)cc1 (centres undefined),-6,-4,.,-8,.,.,-30,.,
Cc1ccccc1OCc1nnc2c3cnn(C)c3ncn12,4,1,-3,.,10,-4,-16,i,
CCOC(=O)C1(C(F)(F)F)N=C(c2cccnc2)OC(N2CCCCC2)=N1 (centres undefined),4,2,-4,-6,-16,7,1,i,
COc1ccccc1N1CCN(C(=S)Nc2ccc(S(=O)(=O)N3CCOCC3)cc2)CC1,3,-15,1,36,0,-12,.,i,
Cc1ccc(CNS(=O)(=O)c2ccc3oc(C(=O)O)c(C)c3c2)cc1,4,-2,31,6,-13,24,2,i,
C[C@H](O)[C@@H]1CN2CCc3c([nH]c4ccccc34)[C@@H]2C[C@@H]1N(C)C(=S)NCCc1ccccc1,-68,4,.,34,.,.,-11,.,
O=C(c1ccc(Nc2cccc(C(F)(F)F)c2)nc1)N1CCCC1,-3,-6,-3,.,16,-5,-9,i,
COc1ccc(NC(=O)CN(C)C(=O)Cc2ccc3c(c2)CCC3)cc1,0,3,12,.,-8,-5,-9,i,
CC(C)Oc1cc2ccccc2cc1CNC[C@H]1O[C@@H](n2cnc3c(N)ncnc32)[C@H](O)[C@@H]1O,1,3,.,4,.,.,-1,.,
C=CCCC(=O)N1CCC(Oc2cccc(C(=O)NCc3ccccn3)c2)CC1,3,0,10,3,-7,-6,-20,.,
O=C1CN(C(=O)c2ccco2)c2ccccc2N1,-1,5,-7,-16,-10,-12,-22,i,
N#CCC(=O)N/N=C\c1cc(Br)ccc1OC/C=C/c1ccccc1,-3,-1,5,-50,-8,-3,0,i,
C=CCOc1ccccc1/C=N/NC(=O)Cc1ccccc1,3,1,-2,-2,-13,2,-3,i,
N#CCCN(C(=O)COC(=O)/C=C/c1cccs1)c1ccccc1,-3,0,.,-4,6,.,-9,.,
COC(=O)c1sc(NC(=O)CSc2nc3cccnc3n2C)nc1C,2,-3,-3,1,.,3,-10,i,
CNc1nc2ccccc2n1/N=C/c1cccc(OC)c1OC,6,-1,-11,28,7,-6,-6,i,
CN(C)c1cc[n+](CC(=O)Nc2cc(C(F)(F)F)ccc2Cl)cc1,5,-4,-4,.,18,-1,-7,i,
O=C(Nc1ccccc1)N1CCCC(CNS(=O)(=O)Cc2ccccc2)C1 (centres undefined),1,-1,-12,-30,-1,-9,4,i,
CCOC(=O)CC(NCc1ccc(OC)c(OCC)c1)c1ccc(C)cc1 (centres undefined),5,2,-4,2,-16,23,.,i,
COc1ccc(NC(=O)Nc2nnc(Cc3ccc(F)cc3)s2)cc1,-18,1,-8,6,26,0,-20,i,
CCc1nnc(NC(=O)CCC(=O)NC2CCCCC2)s1,3,6,-1,.,-4,-3,-7,i,
CCN(CC)C(=O)CC(c1ccc2c(c1)OCO2)c1c(OC)cc(OC)c2ccc(=O)oc12 (centres undefined),1,-3,.,8,-1,.,-14,i,
CC(C)CN(C(=O)c1cc2ccccc2o1)c1c(N)n(CC(C)C)c(=O)[nH]c1=O,4,3,-5,26,29,2,-7,i,
COc1ccc(S(=O)(=O)NNC(=O)Nc2ccc(C)cc2)c(OC)c1,0,3,-14,.,-10,-7,-16,i,

# Screening results as filed in PubChem BioAssay.

# The list is partial; the hit share may differ from the screen's.
